Screening data as filed in PubChem.
GALR2 ag = GALR2 (human) receptor agonism | GALR2-expressing cells, agonist activation read-out | activation, %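 (tested at 5 µM)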 | actives 0.48% (n = 140,000);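 active means above mean plus 3 SD of all compounds, about 5% in these data, not always enough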;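 further: 0% = vehicle buffer wells and 100% = reference agonist at full effect; tested in CHO reporter cells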
INS promoter inh = TRM-6 insulin promoter activity inhibition; inhibition, % at 2 µM; actives 0.9% (n = 130,000); TRM-6 cells (human fetal islet line), insulin promoter-eGFP reporter, imaging; reporter expression induced with tamoxifen;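 active means inhibition above the mean plus 3 SD, with well images judged a real hit on visual review, cut at about 60% in these data, passing the limit was not always enough; inconclusive means inhibition over the cutoff but images rejected on review; inactive means inhibition not above the cutoff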
HSV replic up = increases HSV replication in cells. HSV replication augmentation in cells, fold increase. maximum fold increase. actives 0.005% (n = 220,000). AID 1956;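 active means peak rise of 1.5-fold or more in the series; inconclusive means self-fluorescent or not available for retest; tested in PC3 cells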;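 further: first round at 10 µM; read as green reporter fluorescence; hits show the peak of a series up to 25 µM; 1 = signal of infected wells without compound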
RGS16-Gao HTS = RGS16-Galphao interaction regulator (human) | bead-based flow cytometry RGS16-Galphao binding, fluorescence; actives lie on both sides | binding response (% of control), % at 10 µM | actives 0.38% (n = 220,000) | AID 1441;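 active means below 25% or above 175%, edge rows of some plates excepted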;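 further: Galphao activated by GDP with aluminum fluoride before binding; 100% = wells without compound and 0% = beads without RGS; some results beyond the cut were filed as inactive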
PKD1 inh = inhibitors of human PKD1 kinase; Q15139; PKD1 kinase fluorescence polarization assay; inhibition, %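 (about 10 µM by stock and volumes)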; actives 0.056% (n = 200,000);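 active means inhibition of 50% or more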;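 further: controls were vehicle for no effect and a reference inhibitor for full effect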
Target sequence (Q15139 whole entry, looked up): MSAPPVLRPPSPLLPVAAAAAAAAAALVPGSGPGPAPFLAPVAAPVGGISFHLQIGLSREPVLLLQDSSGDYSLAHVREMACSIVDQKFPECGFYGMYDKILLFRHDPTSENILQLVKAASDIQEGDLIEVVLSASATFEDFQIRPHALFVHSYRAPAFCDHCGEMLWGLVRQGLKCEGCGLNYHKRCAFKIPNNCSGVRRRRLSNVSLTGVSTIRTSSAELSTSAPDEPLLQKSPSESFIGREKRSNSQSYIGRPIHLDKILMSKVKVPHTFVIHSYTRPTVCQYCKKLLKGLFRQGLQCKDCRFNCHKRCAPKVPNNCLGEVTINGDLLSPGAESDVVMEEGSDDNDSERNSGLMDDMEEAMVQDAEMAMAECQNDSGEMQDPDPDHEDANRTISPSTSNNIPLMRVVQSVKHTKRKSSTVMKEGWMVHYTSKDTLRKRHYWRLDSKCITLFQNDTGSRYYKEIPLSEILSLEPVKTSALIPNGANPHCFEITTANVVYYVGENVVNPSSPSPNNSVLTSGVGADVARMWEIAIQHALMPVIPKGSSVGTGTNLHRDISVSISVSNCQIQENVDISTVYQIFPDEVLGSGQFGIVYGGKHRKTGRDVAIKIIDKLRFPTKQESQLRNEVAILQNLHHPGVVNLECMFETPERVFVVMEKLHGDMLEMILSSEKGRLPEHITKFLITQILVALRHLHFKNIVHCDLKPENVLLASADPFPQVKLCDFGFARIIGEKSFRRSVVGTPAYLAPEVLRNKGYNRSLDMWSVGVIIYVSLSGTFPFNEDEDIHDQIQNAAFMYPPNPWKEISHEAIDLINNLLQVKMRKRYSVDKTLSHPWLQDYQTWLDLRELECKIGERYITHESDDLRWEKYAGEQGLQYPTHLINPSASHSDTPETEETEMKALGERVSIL
INS promoter inh cell count = second read-out of INS promoter inh, no call of its own (marks repeat the call); normalized cell count, %; measured here: cell count, toxicity; reference of the scale not given here;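 cells exposed to compound for 48 h; stained nuclei by imaging scaled within each plate; lower means fewer cells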
HSV replic up primary fold = second read-out of HSV replic up, no call of its own (marks repeat the call); fold increase; compound at 10 µM; measured here: primary screen fold increase 10 uM; tested in PC3 cells;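 GFP signal in the first replicate; 1 = infected wells without compound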
An asterisk follows results filed as active; i = inactive; ? = inconclusive; . = not tested or not shown.

SMILES	GALR2 ag	INS promoter inh	INS promoter inh cell count	HSV replic up	HSV replic up primary fold	RGS16-Gao HTS	PKD1 inh
CCN1CCN(c2cc(=O)n(-c3cc(Cl)ccc3C)c(=O)[nH]2)CC1	-1.6	-100	118	i	1.1	103	0
CCC(=Nc1ccccc1)C1=C(O)CC(C)(C)CC1=O	.	.	.	i	0.95	103	-1
N#CCCn1cc(/C=C/C(=O)O)c(-c2ccc(F)cc2)n1	.	14	114	i	1	100	-1
CC(=O)c1c(C)[nH]c(C(=O)NCCC2=CCCCC2)c1C	-0.6	.	.	i	0.99	106	-1
CC(C)(CO)NS(=O)(=O)c1ccc2c(c1)C(=NO)c1cc(S(=O)(=O)NC(C)(C)CO)ccc1-2	.	.	.	i	1	108	-3
C=CCNc1ncnc2c1[nH]c1ccc(C)cc12	-2.2	.	.	i	1.1	101	-1
O=C(c1ccc2c(c1)N(Cc1ccc(F)cc1)C(=O)c1ccccc1S2(=O)=O)N1CCN(c2ccccn2)CC1	.	-18	147	i	0.8	111	3
Cc1ccc(NC(=O)c2cn(-c3cccc(C)n3)cn2)cc1	-1.3	-6	120	i	0.9	101	-2
CCCc1nnc2n1N=C(c1ccc(-c3cc(Cl)ccc3Cl)o1)CS2	0.3	25	122	i	0.78	104	-4
COc1ccc(N(C(C)C(=O)NN=C2CCCC2)S(C)(=O)=O)cc1 (stereo not given)	.	.	.	i	1	98	13
Nc1c(C(=O)NCc2ccc3c(c2)OCO3)nnn1Cc1ccc(Br)cc1	.	.	.	i	0.88	98	.
Cc1ccc(S(=O)(=O)Cn2nnnc2CN2CCCC3(CCCCC3)C2)cc1	0.9	.	.	i	0.93	104	1
Cn1c(SCC(=O)c2cc(Cl)c(Cl)s2)nnc1-c1ccco1	.	.	.	i	1.1	104	.
COc1ccc(-n2c(COc3ccccc3)nnc2SCC(N)=O)cc1	-2.3	-25	84	i	0.97	101	7
CCCCN(CC)c1nc(N)c(C#N)c(CC#N)c1C#N	0.3	22	126	i	0.92	58	-2

Part of the list above, field by field.
Nc1c(C(=O)NCc2ccc3c(c2)OCO3)nnn1Cc1ccc(Br)cc1
  GALR2 ag: .
  INS promoter inh: .
  INS promoter inh cell count: .
  HSV replic up: i
  HSV replic up primary fold: 0.88
  RGS16-Gao HTS: 98
  PKD1 inh: .
Cc1ccc(S(=O)(=O)Cn2nnnc2CN2CCCC3(CCCCC3)C2)cc1
  GALR2 ag: 0.9
  INS promoter inh: .
  INS promoter inh cell count: .
  HSV replic up: i
  HSV replic up primary fold: 0.93
  RGS16-Gao HTS: 104
  PKD1 inh: 1

Later entries.
SMILES	GALR2 ag	INS promoter inh	INS promoter inh cell count	HSV replic up	HSV replic up primary fold	RGS16-Gao HTS	PKD1 inh
COc1cc(CNCc2ccccc2C(F)(F)F)cc(OC)c1	.	.	.	i	0.94	105	3
O=C(c1ccccc1)C1CCN(c2ncccc2[N+](=O)[O-])CC1	.	.	.	i	0.92	107	.
CC1=NN(c2ccc(S(=O)(=O)O)cc2C)C(=O)C1	.	.	.	i	1	104	-5
Cc1c(C(=O)NCc2cccs2)oc2ccc(S(=O)(=O)N3CCOCC3)cc12	-1.3	23	97	i	0.88	102	2
COc1ccc(CNC(=O)C2CCN(S(=O)(=O)c3cccc4cccnc34)CC2)cc1	-1.0	-15	114	.	.	101	-4
N#Cc1c(NC(=O)CSc2nc3c(c(C(F)(F)F)n2)CCc2ccccc2-3)sc2c1CCCC2	-2.2	-25	131	i	1.1	103	-1
CN(C(=O)CSc1nnc2ccccn12)c1c(N)n(Cc2ccccc2)c(=O)[nH]c1=O	-1.3	-50	60	i	0.9	101	17
O=C(CCNC(=O)c1ccccc1Cl)NCC12CC3CC(CC(C3)C1)C2	0.7	.	.	i	1.1	101	6
O=[N+]([O-])c1ccc(Cl)c(/C=N/n2c(C3CCCCC3)n[nH]c2=S)c1	-3.4	.	.	i	0.97	57	-10
CCCc1ccc2c(N)c(C#N)sc2n1	0.7	.	.	i	0.86	.	-3
O=[N+]([O-])c1ccc(Cl)cc1N1CCCC1	.	.	.	i	0.89	99	-2
Cc1c(Cl)cnc(NC(=O)COC(=O)c2ccc3ncsc3c2)c1Cl	-3.3	.	.	i	1	88	2
C=CCn1c(O)c(N=NC(=S)Nc2ccccc2F)c2cc(S(=O)(=O)N3CCOCC3)ccc21	.	.	.	i	0.99	100	-5
CC1=C(C)CC(C(=O)NCC(=O)c2ccccc2)C(C(=O)O)C1 (stereo not given)	-1.7	34	65	i	0.85	84	-5
CCN(CC)C(=O)Oc1ccc2ccccc2c1Cl	-0.8	-14	99	i	1.1	107	3
CS(=O)(=O)Nc1ccccc1C(=O)O	-1.0	27	105	i	0.91	105	-12
CCc1ccc(C2c3[nH]c4ccccc4c3CCN2C(=O)CNC(N)=O)cc1 (stereo not given)	.	.	.	i	1	98	4
COc1cccc(N(CC(=O)NCCSc2ccc(Cl)cc2)S(C)(=O)=O)c1	-2.8	-93	87	i	0.94	100	4
CCCCc1ccc(-c2nc(-c3ccncc3)no2)cc1	-0.5	38	72	i	1.1	101	-8
COC(=O)c1ccc(NS(=O)(=O)c2cc(C)ccc2OC)cc1	-1.7	-154	79	i	1	104	5
O=C(COc1cccc2ccccc12)Nc1nc2ccccc2[nH]1	-1.4	16	76	i	0.87	102	-7
CCc1ccc(C(=O)COC(=O)C(CCSC)NC(=O)c2ccccc2)cc1 (stereo not given)	-0.9	-17	100	i	1.1	142	-6
CCN(C(=O)Cn1cc(C(F)(F)F)ccc1=O)c1c(N)n(Cc2ccccc2)c(=O)[nH]c1=O	.	9	191	i	0.95	112	-7
CCCCn1c(CN2CCN(C)CC2)nc2ccccc21	0.1	.	.	i	0.92	99	10
Cn1c(N)c(C(=O)COC(=O)COc2ccc(C#N)cc2)c(=O)n(C)c1=O	.	.	.	i	0.88	95	.
O=C(COc1ccccc1[N+](=O)[O-])N1CCN(S(=O)(=O)c2ccccc2)CC1	.	.	.	i	0.94	83	-9
Cn1ccnc1C(=O)c1ccc(Cl)c(S(=O)(=O)N2CCOCC2)c1	.	.	.	i	1	108	.
O=C(Cc1cccc2ccccc12)Nc1cccnc1	.	.	.	i	0.98	97	3
COC(=O)c1cnc(NNS(=O)(=O)c2ccc(Cl)cc2)nc1C(F)(F)F	.	.	.	i	1.6	103	.
c1ccc(-c2ccccc2OCCCN2CCCCC2)cc1	-1.1	-13	157	i	0.81	103	-4

Reprinted from the results shown (4 entries):
SMILES	GALR2 ag	INS promoter inh	INS promoter inh cell count	HSV replic up	HSV replic up primary fold	RGS16-Gao HTS	PKD1 inh
Cn1ccnc1C(=O)c1ccc(Cl)c(S(=O)(=O)N2CCOCC2)c1	.	.	.	i	1	108	.
O=C(Cc1cccc2ccccc12)Nc1cccnc1	.	.	.	i	0.98	97	3
COC(=O)c1cnc(NNS(=O)(=O)c2ccc(Cl)cc2)nc1C(F)(F)F	.	.	.	i	1.6	103	.
c1ccc(-c2ccccc2OCCCN2CCCCC2)cc1	-1.1	-13	157	i	0.81	103	-4

Remaining list, next part.
SMILES	GALR2 ag	INS promoter inh	INS promoter inh cell count	HSV replic up	HSV replic up primary fold	RGS16-Gao HTS	PKD1 inh
Cc1ccc(NC(=O)c2cnccn2)cc1	.	31	130	i	0.93	97	0
O=C(Nc1ccncc1)c1c(F)cccc1F	-0.9	5	91	i	0.92	84	6
COCc1cc(=O)n2[nH]c(C)nc2n1	-1.8	28	104	i	1	97	4
Cc1ccc(C(C(=O)NC2CCCC2)N(C(=O)Cc2cccs2)c2ccc(C)c(C)c2)o1 (stereo not given)	-0.9	-8	100	i	0.99	52	0
NC(=O)c1ccc(Sc2nnc(-c3cccs3)n2CC2CCCO2)c([N+](=O)[O-])c1 (stereo not given)	0.0	30	82	i	1	101	1
CC(=O)Nc1nnc(SCc2cc(=O)c(OC(=O)c3ccccc3)co2)s1	.	.	.	i	1	103	-1
COc1cccc(C(=O)n2ccc(-c3cccs3)n2)c1	.	.	.	i	0.88	98	.
COc1ccc2cc(C(=O)C3CCCN(Cc4cccc(C)n4)C3)ccc2c1 (stereo not given)	.	.	.	i	0.94	97	3
CCOC(=O)C(NC(=O)CC)(Nc1ccc(S(=O)(=O)Nc2cc(C)on2)cc1)C(F)(F)F (stereo not given)	-1.2	.	.	i	0.84	113	2
Cc1ccc(C(=O)N/N=C\c2cc3c(cc2Br)OCO3)s1	2.9	23	95	i	0.72	100	-9
CCCNC(=O)COC(=O)/C=C/c1ccc(C)o1	.	.	.	i	1.1	101	-7
O=C(COc1cccc2ccccc12)NNC(=O)c1cccs1	-2.3	.	.	.	.	101	-5
Cn1c(C(=O)N2CCC(C(=O)N3CCN(Cc4ccc5c(c4)OCO5)CC3)CC2)cc2sccc21	-0.9	50	109	i	0.93	81	-21
O=C1CC(SC2=NCCS2)C(=O)N1c1ccc(Cl)cc1 (stereo not given)	0.8	8	210	i	0.99	101	4
CNC(=O)COc1ncnc2scc(-c3ccc(F)cc3)c12	.	29	94	i	0.89	111	-5

A few values from the list:
In PKD1 inh, COc1ccc2cc(C(=O)C3CCCN(Cc4cccc(C)n4)C3)ccc2c1 (stereo not given) has the entry 3
In INS promoter inh, NC(=O)c1ccc(Sc2nnc(-c3cccs3)n2CC2CCCO2)c([N+](=O)[O-])c1 (stereo not given) has the entry 30
In PKD1 inh, O=C(COc1cccc2ccccc12)NNC(=O)c1cccs1 has the entry -5
In PKD1 inh, CNC(=O)COc1ncnc2scc(-c3ccc(F)cc3)c12 has the entry -5
In GALR2 ag, O=C1CC(SC2=NCCS2)C(=O)N1c1ccc(Cl)cc1 (stereo not given) has the entry 0.8
In GALR2 ag, Cc1ccc(C(C(=O)NC2CCCC2)N(C(=O)Cc2cccs2)c2ccc(C)c(C)c2)o1 (stereo not given) has the entry -0.9

Remaining list, next part.
SMILES	GALR2 ag	INS promoter inh	INS promoter inh cell count	HSV replic up	HSV replic up primary fold	RGS16-Gao HTS	PKD1 inh
O=c1[nH]c2ccc(Cl)cc2c(-c2ccccc2)c1SC(=S)N1CCCCC1	1.3	-34	53	?	.	90	-4
CCOC(=O)CSc1nnc2n(C3CCCCC3)c(=O)c3c4c(sc3n12)CCCC4	0.7	11	95	i	0.86	103	2
COC(=O)c1cc(Cc2ccc(N)c(C(=O)OC)c2)ccc1N	-0.4	-12	119	i	0.57	97	-2
N#CC1=C(SCc2ccc(C#N)cc2)N=C(N)C(c2nc(-c3ccccc3)cs2)C12CCCCC2 (stereo not given)	0.5	11	67	i	0.83	97	-13
CCN(CC)S(=O)(=O)c1ccc(C(=O)N2CCCCC2)cc1	-1.1	47	90	i	0.79	99	-6
CCCCCC(=O)NC(Nc1ccc(S(N)(=O)=O)cc1)C(Cl)(Cl)Cl (stereo not given)	-1.1	40	136	i	0.61	101	5
COc1ccc(NC(=O)c2cc([N+](=O)[O-])ccc2N2CCCC2)cc1	.	.	.	i	1.1	103	-3
COc1ccc(S(=O)(=O)N2CCCC2C(=O)Nc2ccc(C(C)=O)cc2)cc1 (stereo not given)	-1.3	.	.	i	0.88	103	10
Nc1nnc(CSCc2ccc(Cl)cc2)s1	-0.8	-64	132	i	0.94	108	-12
c1ccc2nc(N3CCOCC3)c(N3CCOCC3)nc2c1	-1.4	.	.	i	0.98	108	-4
O=C(NC(=S)Nc1ccc2c(c1)OCCO2)c1ccco1	.	.	.	i	0.95	100	.
Fc1ccc(CN2CCCCCC2)c(F)c1	-1.2	53	109	i	1	99	-13
Brc1ccccc1-n1nnc(-c2nccs2)n1	.	.	.	i	1	93	3
COc1cc(S(=O)(=O)N2CCCCC2)c(OC)cc1Br	.	-23	99	i	0.98	104	2
O=C(COc1ccc(Cl)cc1Cl)Nc1ccc(S(=O)(=O)NC2=NCCCCC2)cc1	0.2	.	.	i	0.9	101	-1
O=S(=O)(CC(c1ccccc1)N1CCCCC1)c1ccc(Cl)cc1 (stereo not given)	.	.	.	i	1.2	101	.
O=C(N/N=C/c1ccc([N+](=O)[O-])s1)c1cccc(Br)c1	-2.2	-50	122	i	0.92	100	-1
Cc1nccn1CCN(C)Cc1cn(Cc2ccccc2)nc1-c1ccc2c(c1)OCO2	.	.	.	i	0.9	105	-5
OC1CCN(C(=S)NCCc2ccccc2)CC1	-2.0	-4	141	i	0.99	101	-7
COc1cccc(Nc2nnc(SCC(=O)N3CC(C)OC(C)C3)s2)c1 (stereo not given)	-1.4	-11	130	i	0.76	87	-2
COc1ccc(N2C(=O)/C(=C\c3ccco3)N=C2SCC(=O)N(C(C)C)C(C)C)cc1Cl	-0.7	25	35	i	1.2	109	-5
COc1cc2cnc(Cl)nc2cc1OC	0.6	-13	126	i	0.94	102	-5
Nc1cc(Cl)ccc1C(=O)OCC(=O)NC1CCCCC1	.	.	.	i	0.97	96	-1
